Screening results from PubChem.
LASV entry inh – blocks Lassa virus binding to or entry into cells | Lassa virus pseudotype entry inhibition, cell reporter; control for the full effect not named in the record | Potency, µM (series often up to 37.9 µM), without a hit: at the highest dose activity change, negative = inhibition, most hits filed as inhibitors | 300,000 tested, 1.2% active; active means well fitted inhibition curve with a large enough effect; inconclusive means small, poorly fitted or top-dose-only effect, or effect the other way; inactive means flat fitted curve, though single readings scatter; tested in HEK293 cells; further: on the % scale 0 is the no-effect control and ±100 the full control effect; nearly all actives have a fitted effect of over 50% in size; luciferase read-out
NS1 inh – blocks influenza NS1 protein function | S. cerevisiae slowed by influenza A NS1, growth recovery by OD600 | Potency, µM (series often up to 46.1 µM), for the others: top-dose activity, positive = more growth | 270,000 tested, 0.4% active; active means well fitted rising curve with a large enough effect; inconclusive means small, poorly fitted or top-dose-only effect; inactive means no such curve, though single readings can be large or run the other way; further: nearly all actives have a fitted effect of over 50% in size
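Read-out: OD600 growth recovery of NS1-expressing budding yeast. Cells grown overnight at 30C in -URA glucose medium, washed, resuspended and diluted 1:100 in 2% galactose assay medium, pH 6.0. Same strain lacking NS1 served as positive control.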
2A StopGo – FMDV 2A StopGo reporter, luciferase signal | human cells with a luciferase reporter of 2A StopGo recoding; control for the full effect not named in the record | Potency, µM (top dose mostly 57.9 µM), for the others: at the highest dose signal change, negative = less light | 410,000 tested, 1.2% active | AID 1159524; active = well fitted falling curve with a large enough effect; inconclusive = small, poorly fitted or top-dose-only effect; inactive = no such curve, though single readings can be large or run the other way; tested in HEK293T cells; further: on the % scale 0 is the no-effect control and ±100 the full control effect; nearly all actives have a fitted effect of over 45% in size; luciferase light after 4 h
RE007 growth inh – less growth of the S. pombe RE007 Vpr strain. S. pombe RE007 Vpr strain, BacTiter-Glo ATP luminescence, 24 h; control for the full effect not named in the record. 360,000 tested, 0.21% active. Potency, µM (top dose mostly 92.2 µM), for inactives: top-dose activity change, negative = less growth. AID 651644; active = well fitted falling curve with a large enough effect; inconclusive = small, poorly fitted or top-dose-only effect; inactive = no such curve, though single readings can be large or run the other way;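 further: on the % scale 0 is the no-effect control and ±100 the full control effect; nearly all actives have a fitted effect of over 50% in size; the assay follows cell death caused by Vpr and the record does not say whether a fall means rescue or toxicity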
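Fission yeast RE007 carrying one integrated HIV-1 vpr copy, seeded at OD 0.01 in PMG+AL medium with 23 nL pinned compound. Grown 24 h at 30 degrees; viability read by BacTiter-Glo luminescence after 5 min.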
SARS PLpro yeast – SARS-CoV PLP inhibition in yeast | S. cerevisiae expressing SARS-CoV PLpro, growth rescue; control for the full effect not named in the record | Potency, µM (series often up to 32.9 µM), inactives show at the highest dose activity, positive = growth rescue | 330,000 tested, 0.19% active | AID 485353; active means well fitted rising curve with a large enough effect; inconclusive means small, poorly fitted or top-dose-only effect; inactive means no such curve, though single readings can be large or run the other way; further: 0% is about no effect; nearly all actives have a fitted effect of over 55% in size; growth read by luminescence after 48 h
Cruzain noTriton – inhibitors of Trypanosoma cruzi cruzain without detergent; P25779; purified cruzain, Z-FR-AMC fluorescence, no detergent; Potency, µM, for the others: max response, negative = inhibition, most hits filed as inhibitors; 200,000 tested, 2.3% active;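 further: plate controls were enzyme without inhibitor for no effect and buffer without enzyme for full effect; nearly all actives have a fitted effect of over 40% in size; top concentration of the series not given in the record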
Target sequence (P25779 123-467 limits assumed): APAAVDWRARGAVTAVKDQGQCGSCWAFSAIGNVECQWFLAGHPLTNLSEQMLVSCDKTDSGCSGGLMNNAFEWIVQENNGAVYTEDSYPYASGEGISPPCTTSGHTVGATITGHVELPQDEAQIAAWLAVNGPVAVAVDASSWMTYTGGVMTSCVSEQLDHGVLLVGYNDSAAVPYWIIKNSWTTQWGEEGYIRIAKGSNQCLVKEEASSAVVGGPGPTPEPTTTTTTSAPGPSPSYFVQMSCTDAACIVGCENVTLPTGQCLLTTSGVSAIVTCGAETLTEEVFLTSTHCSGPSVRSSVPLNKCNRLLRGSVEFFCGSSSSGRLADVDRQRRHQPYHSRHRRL
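Purified cruzain at 1.5 nM, pre-incubated 15 min with compound at room temperature in 100 mM sodium acetate pH 5.5, 5 mM DTT, 0.00005% Triton X-100. Reaction started with 2 uM Z-FR-AMC; AMC fluorescence increase over 60 s gives rate.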
Marburg entry inh – inhibitors of Marburg virus binding or cell entry; Potency, µM (series often up to 37.8 µM), for inactives: at the highest dose activity change, negative = inhibition, usual class: inhibitors; 300,000 tested, 1.8% active; AID 540276; Marburg virus pseudotyped entry inhibition, cell reporter; control for the full effect not named in the record; about a third of the inactives were read at about 46 µM; active = well fitted inhibition curve with a large enough effect; inconclusive = small, poorly fitted or top-dose-only effect, or effect the other way; inactive = flat fitted curve, though single readings scatter; tested in HEK293 cells; about a fifth of its hits are not listed in these tables; further: on the % scale 0 is the no-effect control and ±100 the full control effect; luciferase read-out
Cruzain inh Det – cruzain (T. cruzi) inhibition with detergent | P25779 | purified cruzain, Z-FR-AMC fluorescence, 0.01% Triton | Potency, µM, without a hit: max response, negative = inhibition, actives largely listed as inhibitors | 200,000 tested, 0.43% active | AID 1478;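 further: plate controls were neutral wells for no effect and buffer without enzyme for full effect; nearly all actives have a fitted effect of over 40% in size; top concentration of the series not given in the record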
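Z-FR-AMC hydrolysis (2 uM substrate) by cruzain (1.5 nM) monitored kinetically at ex 360/em 450 nm after 15 min room-temperature compound exposure; 0.01% Triton X-100, pH 5.5, 5 mM DTT.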
The depositor's hits bear a star; & = joins results of further samples; [ ] = remark or other dose. Unless noted, the call rests on the fitted dose curve; in most records, active means well fitted curve in the direction sought with a large enough effect; inconclusive means small, poorly fitted or top-dose-only effect, or another doubt; inactive means no such curve, though single readings can be large; an effect the other way counts as inactive or inconclusive. Potency means the concentration at half of the fitted maximal effect.

`CC(=O)c1cccc(NC(=O)CCNS(=O)(=O)c2cccc3nsnc23)c1` gave LASV entry inh -10.9%, NS1 inh 1.3%, 2A StopGo 5.5%, RE007 growth inh -0.6%, Cruzain noTriton 5.4%, Marburg entry inh 5.9% and Cruzain inh Det 1.5%.
CC(C)(C)C(=O)CSc1nc2ccsc2c(=O)n1Cc1ccccc1F was read as LASV entry inh inconclusive, 2A StopGo -22.3%, Cruzain noTriton 8.9% and Cruzain inh Det -1.9%.
`CCOC(=O)N1CCC(n2c(SCC(=O)NCc3ccccc3)nc3ccccc3c2=O)CC1` gave LASV entry inh -18.0%, NS1 inh -35.5%, 2A StopGo inconclusive, RE007 growth inh -0.2%, SARS PLpro yeast 4.3%, Cruzain noTriton 11.1%, Marburg entry inh 2.0%&-3.3% and Cruzain inh Det 0.7%.
`CSc1nnc(-c2ccncc2)n1/N=C/c1cn(-c2ccccc2)nc1-c1ccc(Cl)cc1` gave LASV entry inh 12.2%, NS1 inh 6.4%, 2A StopGo inconclusive, RE007 growth inh -9.4%, SARS PLpro yeast -2.5% and Marburg entry inh inconclusive.
CC(C(=O)NCc1ccccc1Cl)n1cc([N+](=O)[O-])cn1 (stereo not given) was read as NS1 inh -6.8%, 2A StopGo -4.7%, RE007 growth inh 23.8% and SARS PLpro yeast -0.5%.
COc1ccc(C2/C=C\CN(S(=O)(=O)c3ccc4ccccc4c3)CC(=O)N2Cc2ccc(F)cc2)cc1 (stereo not given) was read as NS1 inh 2.82µM*, 2A StopGo -3.8%, RE007 growth inh 2.5% and SARS PLpro yeast 1.7%.
`Cc1ccc(CNC(=O)CCN2C(=O)C(C)Oc3ccc(C)cc32)cc1` (stereo not given) gave LASV entry inh 11.5%[46.1 µM], 2A StopGo -8.2%, Cruzain noTriton 10.7%, Marburg entry inh inconclusive and Cruzain inh Det -0.5%.
For Cc1nc(Oc2cccc(Cl)c2)c2oc3ccccc3c2n1 the results were LASV entry inh inconclusive, NS1 inh -1.6%, 2A StopGo -1.9%, RE007 growth inh -9.4%, SARS PLpro yeast -2.3%, Cruzain noTriton inconclusive, Marburg entry inh inconclusive and Cruzain inh Det -4.9%.
CCCC(O)(CCC)C(=O)NNc1ccc(C)cc1 was read as LASV entry inh inconclusive, NS1 inh -3.4%, 2A StopGo -11.8%, RE007 growth inh 11.0%, SARS PLpro yeast -1.7% and Marburg entry inh inconclusive.
Screening CC1(c2ccc3noc(-c4ccc(F)cc4)c3c2)OCCO1 returned LASV entry inh -12.8%, NS1 inh -8.3%, 2A StopGo inconclusive, RE007 growth inh -7.8%, SARS PLpro yeast -0.8%, Cruzain noTriton -2.9%, Marburg entry inh -0.2% and Cruzain inh Det 1.3%.
Screening O=C(c1ccc2c(c1)N(Cc1ccccc1)C(=O)c1ccccc1S2(=O)=O)N1CCN(Cc2ccccc2)CC1 returned LASV entry inh inconclusive, 2A StopGo -9.5%, Cruzain noTriton 14.1%, Marburg entry inh inconclusive and Cruzain inh Det -1.2%.
`Cc1oc(-c2ccccc2F)nc1CS(=O)(=O)CC(=O)NCCN(C)C1CCCCC1` gave NS1 inh 4.2%, 2A StopGo -16.0%, RE007 growth inh -18.6%, SARS PLpro yeast 3.3%, Cruzain noTriton -4.2% and Cruzain inh Det 0.8%.
For COc1ccc(CCNCc2c(C(=O)O)c(C)n(Cc3cccc(Cl)c3)c2C)c(OC)c1OC the results were LASV entry inh 0.7%[46.1 µM], 2A StopGo -15.2%, Cruzain noTriton 18.3%, Marburg entry inh -1.3%[46.1 µM] and Cruzain inh Det -1.0%.
O=C(CSc1nc2c([nH]c3ccccc32)c(=O)n1-c1ccccc1)NCC1CCCO1 (stereo not given) was read as LASV entry inh -28.7%[46.1 µM], NS1 inh 0.6%, 2A StopGo -20.2%, RE007 growth inh -5.3%, SARS PLpro yeast -3.0% and Marburg entry inh -1.5%[46.1 µM].
For COc1ccccc1N1C(=O)C(=O)N(C)C1=O the results were LASV entry inh 26.3%, 2A StopGo -5.8%, RE007 growth inh 2.7% and Marburg entry inh inconclusive.
`Cc1cc(=O)[nH]c(NCc2ccccc2)n1` gave NS1 inh 2.5%, 2A StopGo -20.8%, RE007 growth inh 2.8% and SARS PLpro yeast 0.7%.
`C=CCn1c(SCC(N)=O)nc(C)cc1=O` gave LASV entry inh 6.2%, NS1 inh -2.6%, 2A StopGo -23.1%, RE007 growth inh 26.8%, SARS PLpro yeast 1.8%, Cruzain noTriton 6.6%, Marburg entry inh 1.9% and Cruzain inh Det 4.8%.
CC(C)COc1ccc(Cc2cnc(N)nc2N)cc1 was read as LASV entry inh -9.3%, NS1 inh -4.8%, 2A StopGo -1.1%, RE007 growth inh 0.2%, SARS PLpro yeast -2.8%, Cruzain noTriton 4.0%, Marburg entry inh -22.2% and Cruzain inh Det -4.5%.
CCOC(=O)c1ccc(N2C(=O)c3n[nH]c(-c4ccco4)c3C2c2ccc(O)c(OC)c2)cc1 (stereo not given) was read as LASV entry inh -24.4%[46.1 µM], 2A StopGo inconclusive, Cruzain noTriton -2.0%, Marburg entry inh inconclusive and Cruzain inh Det -0.5%.
COc1cc2[nH]c(-c3ccc(C)cc3)cc(=O)c2cc1OC was read as LASV entry inh 5.6%, NS1 inh 15.0%, 2A StopGo 43.3%[activator], RE007 growth inh -7.7%, SARS PLpro yeast 15.5%, Cruzain noTriton -3.4%&-4.6%, Marburg entry inh 29.2% and Cruzain inh Det -0.2%&-1.6%.
CCCOc1cccc(NC(=O)c2c(-c3ccccc3)noc2C)c1 was read as LASV entry inh -26.9%, NS1 inh -35.4%, 2A StopGo inconclusive, RE007 growth inh 5.7%, SARS PLpro yeast -0.3%, Cruzain noTriton -8.5%, Marburg entry inh 1.4% and Cruzain inh Det -3.6%.
Screening Cc1cc(C)cc(NC(=O)Cn2nc(N3CCN(c4ccccc4)CC3)ccc2=O)c1 returned LASV entry inh -5.5%[46.1 µM], 2A StopGo inconclusive, Cruzain noTriton -3.1% and Cruzain inh Det -1.4%.
`COc1ccccc1-n1cc2c([N+](=O)[O-])cc([N+](=O)[O-])cc2n1` gave NS1 inh 0.0%, 2A StopGo inconclusive, RE007 growth inh 2.8%, SARS PLpro yeast -2.0% and Marburg entry inh -4.0%.
For CN(C)S(=O)(=O)Oc1ccc(C(=O)Nc2cccc(Cl)c2)cc1 the results were LASV entry inh -22.6%[46.1 µM], NS1 inh -10.3%, 2A StopGo 2.3%, RE007 growth inh -4.9%, SARS PLpro yeast 0.0% and Marburg entry inh inconclusive.
`CC[C@H](C)[C@H](NS(=O)(=O)c1ccc(C)cc1)C(=O)N1CCC(C(=O)N[C@H](C(=O)O)C(C)C)CC1` gave LASV entry inh 0.8%, NS1 inh 9.2%, 2A StopGo 12.5%, RE007 growth inh 0.7%, SARS PLpro yeast 0.0%, Cruzain noTriton 2.3%, Marburg entry inh -4.6%&15.9% and Cruzain inh Det 0.3%.
Screening COc1ccc(C)cc1NC(=O)c1ccc(S(=O)(=O)N2CCOCC2)cc1 returned LASV entry inh 1.9%, NS1 inh -1.8%, 2A StopGo -12.7%, RE007 growth inh 12.9%, SARS PLpro yeast 0.2%, Cruzain noTriton 8.7%, Marburg entry inh 0.7% and Cruzain inh Det -1.0%.
`CC(=O)NCCC(=O)Nc1nc(-c2c[nH]c3ccccc23)cs1` gave LASV entry inh inconclusive, NS1 inh 17.6%, 2A StopGo 8.0%, RE007 growth inh 14.1%, SARS PLpro yeast -1.5% and Marburg entry inh 7.4%[46.1 µM].
COc1ccc(C(=O)NC(=S)Nc2cc3oc4ccccc4c3cc2OC)cc1 was read as LASV entry inh 3.3%[46.1 µM], NS1 inh 21.7%, 2A StopGo -16.2%, RE007 growth inh -23.2%, SARS PLpro yeast 4.6%, Cruzain noTriton 7.94µM*, Marburg entry inh inconclusive and Cruzain inh Det -3.2%.
Screening Cc1cccc(C(=O)n2nc(-c3cccnc3)nc2NCc2ccccc2)c1 returned LASV entry inh 29.0%[46.1 µM], 2A StopGo -12.4%, Cruzain noTriton 9.8%, Marburg entry inh 23.4%[46.1 µM] and Cruzain inh Det -6.6%.
`CCc1ccc(NC(=O)Cc2c(C(=O)O)c(C)cn2C)cc1` gave LASV entry inh 12.9%[46.1 µM], 2A StopGo 0.6%, Cruzain noTriton -15.9% and Cruzain inh Det 1.6%.
For CC1(C)CC(=O)C(C(C2=C(O)CC(C)(C)CC2=O)c2ccc([N+](=O)[O-])cc2)C(=O)C1 (stereo not given) the results were LASV entry inh -24.3%, NS1 inh 9.1%, 2A StopGo 4.7%, RE007 growth inh inconclusive, SARS PLpro yeast -11.3%, Cruzain noTriton 4.8%, Marburg entry inh 1.6% and Cruzain inh Det 1.0%.
For Cc1ccc(Cl)cc1NC(=O)COC(=O)C1CCCCC1 the results were LASV entry inh -0.4%, NS1 inh -1.9%, 2A StopGo -6.1%, RE007 growth inh 7.5%, SARS PLpro yeast -5.5%, Cruzain noTriton -1.4%, Marburg entry inh 4.2% and Cruzain inh Det -4.0%.
For O=C1/C(=C/c2cccc([N+](=O)[O-])c2)Oc2cc(O)ccc21 the results were LASV entry inh -1.5%[46.1 µM], NS1 inh -8.1%, 2A StopGo 10.1%, RE007 growth inh 8.5%, SARS PLpro yeast -1.6% and Marburg entry inh 15.0%[46.1 µM].
Cc1cc(C)c(S(=O)(=O)Nc2ccc(N(C)C)cc2)c(C)c1-n1cnnn1 was read as LASV entry inh inconclusive, NS1 inh -42.9%, 2A StopGo 43.0%[activator], RE007 growth inh -15.5%, SARS PLpro yeast -2.1% and Marburg entry inh -4.8%[46.1 µM].
Screening CC(=O)N1CCCc2cc(S(=O)(=O)N3CCC(C(=O)Nc4ccc(C)cc4Cl)CC3)ccc21 returned LASV entry inh 3.5%[46.1 µM], 2A StopGo inconclusive, Cruzain noTriton inconclusive and Cruzain inh Det -2.8%.
Screening COc1cc2c(cc1OC)-c1cc(Nc3ccc4c(c3)OCCO4)nc(=O)n1CC2 returned LASV entry inh 0.2%, NS1 inh -10.7%, 2A StopGo 0.0%, RE007 growth inh 0.0%, SARS PLpro yeast 2.0%, Cruzain noTriton -28.9%, Marburg entry inh inconclusive and Cruzain inh Det -12.4%.
O=C(NC1CCCC1)C(=O)N(c1ccccc1F)C(C(=O)NCC1CCCO1)c1cccs1 (stereo not given) was read as NS1 inh 0.3%, 2A StopGo 20.5%, RE007 growth inh -3.8% and SARS PLpro yeast 0.5%.
`CC1CC(C)CN(S(=O)(=O)CCNC(=O)c2ccc3c(c2)OCO3)C1` (stereo not given) gave LASV entry inh 1.1%, 2A StopGo 25.4%, RE007 growth inh 11.0%, SARS PLpro yeast 2.5% and Marburg entry inh 1.4%[46.1 µM].
